# Screening data deposited in PubChem BioAssay by several laboratories.
# MT1-MMP promoter: MT1-MMP gene expression reporter suppression – cell-based, luciferase reporter, luminescence (AID 618); MT1-MMP promoter luciferase reporter cells, luminescence; hit rate 0.62% among 87,000; calls from a first round at 10 µM; hits with a dose series show EC50 in µM;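 active = over half of the reporter light lost at 10 µM or EC50 under 50 µM; inactive = the rest and hits that failed the dose series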;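 also: actives suppress MT1-MMP promoter-driven transcription so potencies describe inhibitors; HT1080 fibrosarcoma cells; overnight exposure; toxic or luciferase-blocking compounds were not removed from the actives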
# Hsc70 ATP site: Hsc70 inhibitors, probe displacement, primary screen, biochemical, fluorescence polarization (AID 568). Hsc70 fluorescence polarization, probe displacement; higher % means a stronger effect; strong numbers were not always called active. one-dose displacement, % at 20 µM; IC50 in µM for titrated hits. 83,000 tested, under 10 active;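 active = displacement above 50% without optical interference and an IC50 on retest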;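 also: ATPase domain with a fluorescein-tagged ATP probe; 0% = vehicle and 100% = excess ADP; read after one hour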
# WNV protease inh: inhibitors of West Nile virus NS2B-NS3 protease; z-score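 (tested at a level between 10 and 100 µM)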; hit rate 0.18% among 65,000; P06935; WNV NS2B-NS3 protease, fluorogenic substrate Ex360/Em465; hits give low values; AID 577;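 active = z-score at -3 or under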;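 also: score is relative to mean and spread of the compound wells of a plate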
# Target sequence (P06935 1371-1501 limits assumed): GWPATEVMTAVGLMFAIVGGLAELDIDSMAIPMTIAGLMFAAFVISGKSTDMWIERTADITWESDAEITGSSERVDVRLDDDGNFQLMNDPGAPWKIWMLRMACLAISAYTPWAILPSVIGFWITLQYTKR
# Target sequence (P06935 1502-1679 limits assumed): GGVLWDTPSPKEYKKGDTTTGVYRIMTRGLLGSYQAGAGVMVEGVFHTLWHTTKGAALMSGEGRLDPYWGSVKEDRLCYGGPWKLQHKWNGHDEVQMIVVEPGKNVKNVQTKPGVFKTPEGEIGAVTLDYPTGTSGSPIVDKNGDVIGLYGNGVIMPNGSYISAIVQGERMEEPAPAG
# The depositor's hits bear a star; i = inactive; . = not tested or not shown.
# Order of results – MT1-MMP promoter | Hsc70 ATP site | WNV protease inh
> COc1ccc(NC(=O)c2ccccc2NC(=O)C2CCCO2)cc1 (stereo unspecified)
→ i | 5.9% | 0.08
> COc1ccc(C(=O)NCCc2nnc(SCC(=O)Nc3ccccc3C(C)C)n2C)cc1
→ i | 4.5% | .
> O=C(O)CCCNS(=O)(=O)c1ccc(NCc2ccccc2)c(C(=O)O)c1
→ i | 0.1% | 0.06
> Cc1cc(NC(=O)COC(=O)C2CCN(C(=O)c3ccc(Cl)cc3)CC2)no1
→ i | -2.7% | -0.04
> Cc1cc(NC(=O)c2ccc(S(=O)(=O)Nc3ccccc3)cc2)no1
→ i | 2.5% | .
> COC(=O)c1cccc(COC(=O)c2ccc(CS(=O)(=O)c3ccc(C)cc3)cc2)c1
→ i | -2.1% | .
> O=C(NCC(c1cccnc1)N1CCN(c2ccccc2)CC1)c1ccco1 (stereo unspecified)
→ i | -5.6% | 1.38
> CC12CN3CC(C)(CN(C1)C31C(=O)N(Cc3ccccc3)c3ccccc31)C2=O (stereo unspecified)
→ i | 1.7% | -0.46
> CC(C)(C)C(=O)CN1CCN(C2c3ccccc3-c3ccccc32)CC1
→ i | -0.8% | .
> O=C(CC1Oc2ccccc2NC1=O)NCCCN1CCOCC1 (stereo unspecified)
→ i | -4.8% | -0.53
> CCn1c(SCC(=O)NC(=O)NCc2ccco2)nnc1-c1cccs1
→ i | -1.2% | .
> CCN(C(=O)CSc1nc2cc(C(=O)OC)ccc2c(=O)n1Cc1ccco1)c1cccc(C)c1
→ i | -2.3% | 0.38
> CC1CCc2c(sc3ncn4c(SCC(=O)NCc5ccco5)nnc4c23)C1 (stereo unspecified)
→ i | -4.9% | 1.7
> COc1cc2c(cc1NC(=O)C(C)OC(=O)C1CC(=O)N(Cc3ccco3)C1)oc1ccccc12 (stereo unspecified)
→ i | -7.0% | .
> N#C/C(=C\c1c(N2CCC(C(N)=O)CC2)nc2ccccn2c1=O)S(=O)(=O)c1ccccc1
→ i | 1.2% | 0.01
> Fc1ccc(C2NC(=S)NC3=C2N2CCC3CC2)cc1 (stereo unspecified)
→ i | 0.7% | .
> O=S(=O)(c1ccc(Br)cc1)N1CCCN(Cc2cccc(F)c2)CC1
→ i | 4.3% | .
> CCOC(=O)c1ccccc1NC(=O)CSc1nnc(Cc2cccn2C)n1-c1ccc(F)cc1
→ i | -8.4% | 0.86
> CCOCCCNC(=O)COc1ccc(OC)cc1
→ i | -4.1% | .
> CC1Cc2nc(SCC(=O)Nc3ccc(F)cc3)n(C)c(=O)c2S1 (stereo unspecified)
→ i | 1.3% | -0.36
> CCOC(=O)c1c2c(c(=S)n(-c3ccccc3)c1N)CCC2
→ i | -3.5% | 0.72
> c1ccc(Oc2cccc(OCCn3cncn3)c2)cc1
→ i | 1.6% | 0.29
> Cc1cccc(-c2nc(CSCC(=O)NCCCN3CCOCC3)c(C)o2)c1
→ i | -0.5% | 0.49
> CCCCn1c(N)c(N(CC)C(=O)c2ccc3c(c2)S(=O)(=O)c2ccccc2C3=O)c(=O)[nH]c1=O
→ i | 1.5% | 0.64
> O=C(Nc1ccc2nc(-c3cccs3)[nH]c2c1)c1cccs1
→ i | 1.1% | 0.91
> CC1=[N+]([O-])C(C)(C)CC(C)(C)c2ccccc21
→ i | -1.1% | -0.32
> O=C(O)C(Cc1cc2ccccc2[nH]1)N1C(=O)C2CC=C(Cl)CC2C1=O (stereo unspecified)
→ i | 1.5% | 0.25
> Cc1n[nH]c(=O)nc1Nc1ccc(O)cc1
→ i | 4.1% | .
> COCCN(CCOC)c1ncnc2c1cnn2-c1ccccc1
→ i | 1.6% | -0.89
> O=C(Cn1ncnn1)OCc1ccccc1Cl
→ i | -0.1% | 0.16

# One compound at a time, from the list above. Order of screens: MT1-MMP promoter, Hsc70 ATP site, WNV protease inh
# CC12CN3CC(C)(CN(C1)C31C(=O)N(Cc3ccccc3)c3ccccc31)C2=O (stereo unspecified) across the screens: i, 1.7%, -0.46
# N#C/C(=C\c1c(N2CCC(C(N)=O)CC2)nc2ccccn2c1=O)S(=O)(=O)c1ccccc1 across the screens: i, 1.2%, 0.01
# COC(=O)c1cccc(COC(=O)c2ccc(CS(=O)(=O)c3ccc(C)cc3)cc2)c1 across the screens: i, -2.1%, .
# CCn1c(SCC(=O)NC(=O)NCc2ccco2)nnc1-c1cccs1 across the screens: i, -1.2%, .
# O=C(NCC(c1cccnc1)N1CCN(c2ccccc2)CC1)c1ccco1 (stereo unspecified) across the screens: i, -5.6%, 1.38

# More compounds
# Order of results – MT1-MMP promoter | Hsc70 ATP site | WNV protease inh
> N#Cc1nc(Cc2cccc3ccccc23)oc1NCC1CCCO1 (stereo unspecified)
→ i | 5.3% | -0.45
> Oc1oc(-c2ccccc2)nc1C=Nc1ccccc1
→ i | 0.8% | .
> COc1cc(-c2noc(CCC(N)=O)n2)cc(OC)c1OC
→ i | -4.8% | -1.03
> CN(C)CCCNc1cc(Cl)c(S(=O)(=O)N2CCCCC2)cc1C(=O)O
→ i | -12.2% | 0.12
> CCC(=O)Nc1ccc(NC(=O)c2ccccn2)cn1
→ i | -0.2% | 0.67
> CCOC(=O)C1=C(N)OC2=C(C(=O)CC(C)(C)C2)C1c1cccs1 (stereo unspecified)
→ i | -6.5% | .
> CCOC(=O)c1oc2ccccc2c1NC(=O)c1ccc2c(c1)OCO2
→ i | 1.0% | 0.61
> CCN(CC)CCCNC(=O)N[C@@H](Cc1ccccc1)C(=O)O
→ i | -0.4% | 0.22
> O=C(c1ccco1)N1CCC(c2nc(-c3ccccc3Cl)no2)CC1
→ i | 1.2% | 1.68
> CCCC(=O)Nc1ccc(N2CCOCC2)cc1
→ i | -1.3% | -0.77

# Quoted from the listing:
# Hsc70 ATP site with CCCC(=O)Nc1ccc(N2CCOCC2)cc1 → -1.3%
# Hsc70 ATP site with CCOC(=O)C1=C(N)OC2=C(C(=O)CC(C)(C)C2)C1c1cccs1 (stereo unspecified) → -6.5%
# Hsc70 ATP site with CCOC(=O)c1oc2ccccc2c1NC(=O)c1ccc2c(c1)OCO2 → 1.0%
# Hsc70 ATP site with Oc1oc(-c2ccccc2)nc1C=Nc1ccccc1 → 0.8%

# Next results.
# Order of results – MT1-MMP promoter | Hsc70 ATP site | WNV protease inh
> CC(OC(=O)C1CCN(S(=O)(=O)c2ccc(Cl)cc2)CC1)C(=O)N1CCc2ccccc21 (stereo unspecified)
→ i | -1.2% | .
> O=C(CN1C(=O)CSC1=O)NC1CCCCC1
→ i | 4.0% | -0.56
> Cc1ccc(Oc2ccc(-c3nc(N)nc(N)n3)cc2)cc1
→ i | -0.7% | -0.29
> COCCCn1c(C)nc2c(c1=O)c1nc3ccccc3nc1n2CCc1ccccc1
→ i | -10.9% | 0.51
> Cc1ccc2nc(NCCCO)nc(-c3ccccc3)c2c1
→ i | -9.0% | .
> CCOC(=O)c1c(C)c(C(=O)NCc2cccnc2)c(C)n1CC
→ i | -0.9% | -1.24
> COC(=O)c1ccc(C(=O)OC)c(NC(=O)CSc2nc(-c3ccco3)cc(C(F)(F)F)n2)c1
→ i | 3.0% | -0.61
> CCC(C)NC(=O)C1CCC(=O)N1Cc1ccc(C)cc1 (stereo unspecified)
→ i | -9.5% | -1.12
> CCOC(=O)C1=C(C)Nc2nc(SCC)[nH]c(=O)c2C1c1ccncc1 (stereo unspecified)
→ i | 2.9% | -0.43
> O=c1oc2c(CN3CCOCC3)c(O)c(Cl)cc2c2c1CCCC2
→ i | -0.1% | 5.86

# The closing two compounds of the section before are carried over, then new ones follow.
# Order of results – MT1-MMP promoter | Hsc70 ATP site | WNV protease inh
> CCOC(=O)C1=C(C)Nc2nc(SCC)[nH]c(=O)c2C1c1ccncc1 (stereo unspecified)
→ i | 2.9% | -0.43
> O=c1oc2c(CN3CCOCC3)c(O)c(Cl)cc2c2c1CCCC2
→ i | -0.1% | 5.86
> NC(=O)c1cc(-c2ccccc2)nc(N2CCOCC2)n1
→ i | 6.9% | -0.05
> COc1ccc(OCc2nc3ccccc3[nH]2)cc1
→ i | 6.1% | .
> Cc1c(NS(=O)(=O)c2cccc(C(=O)NCc3ccccc3)c2)c(=O)n(-c2ccccc2)n1C
→ i | -3.2% | .
> COc1ccccc1C1CC(c2ccc(Cl)cc2)Nc2nc(N)nn21 (stereo unspecified)
→ i | -7.3% | 0.4
> CCCCNC(=O)C1CCN(c2nc(OC)nc(OC)n2)CC1
→ i | -3.2% | .
> CC(NC(=O)COc1cccc(Br)c1)C(=O)O (stereo unspecified)
→ i | 0.1% | -1.13
> C=C(C)Cn1c(C)cc(C)c(S(=O)(=O)c2ccccc2C)c1=O
→ i | 1.5% | .
> Cc1ccc(CNC(=O)CCS(=O)(=O)c2cccc3nsnc23)cc1
→ i | -2.2% | -1.26

# Gathered by group: those above with a cyano group (2)
# Order of results – MT1-MMP promoter | Hsc70 ATP site | WNV protease inh
> N#C/C(=C\c1c(N2CCC(C(N)=O)CC2)nc2ccccn2c1=O)S(=O)(=O)c1ccccc1
→ i | 1.2% | 0.01
> N#Cc1nc(Cc2cccc3ccccc23)oc1NCC1CCCO1 (stereo unspecified)
→ i | 5.3% | -0.45
